# Screening data from PubChem BioAssay.
# AF4-AF9 inh: MLL-AF4/AF9 protein interaction inhibition | P42568 | AlphaScreen, biotin-AF4 peptide binding to FLAG-AF9 | inhibition, % at 10 µM | 0.47% of 350,000 active;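 active = every replicate reaching a set inhibition limit, whatever the replicate mean, cut at about 25% in these data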;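 note: 0% = plate neutral control median and 100% = total signal loss; the record names both 10 and 1 µM as test concentration; the first replicate is given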
# Target sequence (P42568 whole entry, looked up): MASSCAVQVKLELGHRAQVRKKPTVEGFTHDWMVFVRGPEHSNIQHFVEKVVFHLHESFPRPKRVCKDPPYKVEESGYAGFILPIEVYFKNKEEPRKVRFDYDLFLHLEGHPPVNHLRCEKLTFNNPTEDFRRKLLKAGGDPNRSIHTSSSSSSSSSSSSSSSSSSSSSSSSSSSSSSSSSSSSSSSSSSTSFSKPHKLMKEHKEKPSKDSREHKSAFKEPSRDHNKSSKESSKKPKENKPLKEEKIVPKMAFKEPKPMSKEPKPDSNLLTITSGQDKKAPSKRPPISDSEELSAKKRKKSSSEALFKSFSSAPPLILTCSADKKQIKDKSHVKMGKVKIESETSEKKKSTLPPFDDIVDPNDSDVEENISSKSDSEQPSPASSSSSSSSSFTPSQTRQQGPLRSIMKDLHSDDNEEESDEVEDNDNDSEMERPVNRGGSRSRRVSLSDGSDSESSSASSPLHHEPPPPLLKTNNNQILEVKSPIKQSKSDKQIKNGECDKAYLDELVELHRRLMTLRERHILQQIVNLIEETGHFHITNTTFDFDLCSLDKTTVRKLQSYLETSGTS
# An asterisk follows results filed as active; & = joins results of further samples. Some of the compounds tested; the hit share may differ from the screen's.
SMILES,AF4-AF9 inh
Cc1cccc(C(O)c2ncc(-c3ccc(C(F)(F)F)cc3)[nH]2)c1C (centres undefined),-3.6
COc1ccc(NC(=O)N(C)C[C@H]2Oc3ncc(C#CCN(C)C)cc3C(=O)N([C@@H](C)CO)C[C@@H]2C)cc1,-1.5
COC(=O)C[C@H]1C[C@@H]2c3cc(NS(=O)(=O)c4cccc(OC)c4)ccc3O[C@@H]2[C@@H](CO)O1,-0.2&-6.1
Cc1ccccc1S(=O)(=O)N1C[C@@H](O)COC[C@H]2O[C@@H](CC(=O)N3CCCCC3)CC[C@@H]21,0.3
O=C(O)c1ccc(CN2C[C@@H](CO)O[C@@H](n3cnc4c(Nc5ccccc5)ncnc43)C2)cc1,-3.7
CCOc1ccc(NC(=O)COC(=O)c2c[nH]c3ccccc23)cc1,-2.5
O=C(c1ccco1)N1CCN(C(=O)c2ccc(CS(=O)c3ccc(Br)cc3)o2)CC1 (centres undefined),0.2
CO[C@H](CN(C)C(=O)c1cc(Cl)cc(Cl)c1)[C@@H](C)CN(C(=O)Nc1ccc(F)cc1)[C@H](C)CO,3.3
C[C@@H]1CN([C@H](C)CO)C(=O)c2cccc(NC(=O)C3CC3)c2O[C@H]1CN(C)S(=O)(=O)c1ccccc1,-1.7
COc1ccc2c3c([nH]c2c1)[C@@H](CO)N(C(=O)Nc1ccc(F)cc1)CC31CCN(C(=O)c2ccccc2F)CC1,-1.8
C[C@H]1CCCCO[C@H](CN(C)C(=O)Nc2ccccc2)[C@@H](C)CN([C@@H](C)CO)C(=O)c2cc(NC(=O)CCCN(C)C)ccc2O1,-1.0
CC=Cc1ccc2n(c1=O)C[C@@H]1[C@@H](CO)[C@H](C(=O)NCC(F)(F)F)[C@H]2N1C(=O)C1CC1 (mixture of isomers),-4.5
Cc1ccc(S(=O)(=O)Nc2ccc3c(c2)C(=O)N([C@@H](C)CO)C[C@H](C)[C@H](CN(C)CC2CCCCC2)OCCCC[C@H](C)O3)cc1,10.0
CCOC(=O)C1=C[C@@H](C(C)(C)C)N(S(=O)(=O)c2ccccc2C)[C@H]1c1ccc(Cl)cc1,-1.4
CCCN1C[C@@H](C)[C@H](OC)CN(C)C(=O)c2ccc(NS(C)(=O)=O)cc2OC[C@@H]1C,-3.5
COc1ccc2c3c(n(C)c2c1)[C@@H](CO)N(CC1CC1)CC31CN(C(=O)c2ccc3c(c2)OCO3)C1,11.9
O=C(Cn1nnc(N2CCCCC2)n1)NN=Cc1ccccc1O,1.4
CCCC(=O)Nc1ccc2c(c1)C(=O)N(C)C[C@H](OC)[C@@H](C)CN(CCC)[C@H](C)CO2,-0.5
CCNC(=O)C[C@H]1CC[C@H]2[C@@H](COc3ccc(NC(=O)Nc4ccc(Cl)cc4)cc3C(=O)N2C)O1,0.3
CCCC(=O)Nc1ccc2c(c1)C(=O)N(C)C[C@@H](OC)[C@H](C)CN(S(=O)(=O)c1cn(C)cn1)[C@@H](C)CO2,-0.3
C[C@H]1CN([C@@H](C)CO)C(=O)CCCn2cc(nn2)CO[C@@H]1CN(C)CC1CCCC1,-0.4
CN1c2ccc(Br)cc2[C@H]2[C@H](CCN2C(=O)CN2CCOCC2)[C@@H]1CO,2.0
CCN(CC)C(=O)[C@H]1CC(CC(=O)NCCC2=CCCCC2)C(=O)N2CCc3c([nH]c4ccc(OC)cc34)[C@]12C (some centres undefined),3.9
CO[C@H]1CN(C)C(=O)c2ccc(NC(=O)c3ccccc3)cc2OC[C@H](C)N(C(C)=O)C[C@H]1C,-11.2
CO[C@H]1CN(C)C(=O)c2cc(NC(=O)c3cccc(F)c3)ccc2OC[C@@H](C)N(CC2CC2)C[C@@H]1C,-7.9

# Next section.
SMILES,AF4-AF9 inh
COc1cccc(C(C)(O)c2nc(-c3cccc4cccnc34)cs2)c1 (centres undefined),2.6
Cc1ccn2c(NC3CCCCC3)c(-c3ccc(SC4CCCCC4)cc3)nc2c1,2.9
C[C@@H]1CN([C@@H](C)CO)C(=O)Cc2cc(NC(=O)c3ccncc3)ccc2O[C@H]1CN(C)C(=O)Nc1ccccc1,0.9
C[C@H](CO)N1C[C@H](C)[C@@H](CN(C)C(=O)CN2CCOCC2)Oc2ncc(C3=CCCC3)cc2C1=O,-5.1
COc1ccc2c3c(n(C)c2c1)[C@H](CO)NCC31CN(S(=O)(=O)c2cccc(F)c2)C1,8.2
COc1ccc(S(=O)(=O)N(C)C[C@H]2OCCCC[C@H](C)Oc3ccc(NS(=O)(=O)c4ccc(C)cc4)cc3C(=O)N([C@H](C)CO)C[C@H]2C)cc1,-1.3
COc1ccc(S(=O)(=O)N2CCCCC2)cc1NC(=O)CCC(=O)N1CCC(c2ccccc2)=N1,0.9
Nc1ncnc2c1ncn2[C@@H]1O[C@H](C(=O)N[C@@H](CO)c2ccccc2)[C@@H](O)[C@H]1O,-2.6
C[C@@H]1CN([C@H](C)CO)C(=O)c2cc(NC(=O)Nc3ccc(C(F)(F)F)cc3)ccc2O[C@H]1CN(C)S(=O)(=O)c1ccc(F)cc1,0.8
Cc1ccccc1S(=O)(=O)N1CCCCN2[C@H](C1)[C@H](c1ccc(-c3cncnc3)cc1)[C@@H]2CO,-2.5
OC[C@@H]1[C@H](c2ccc(Br)cc2)[C@H]2CNCCCCN12,5.4
C[C@@H]1CN([C@H](C)CO)C(=O)c2cc(N(C)C)ccc2O[C@H]1CN(C)C(=O)Nc1ccc2c(c1)OCO2,0.3
CCC(=O)N1[C@@H]2c3ccc(-c4ccccc4)c(=O)n3C[C@H]1[C@H](CO)[C@H]2C(=O)N1CCN(C)CC1,3.9
O=C(O)C[C@@H]1C[C@@H]2c3cc(NC(=O)Cc4ccncc4)ccc3O[C@@H]2[C@H](CO)O1,-1.9
C/C=C/c1ccc2c(c1)O[C@@H](CN(C)C(=O)Cc1ccccn1)[C@H](C)CN([C@@H](C)CO)S2(=O)=O,1.3
C[C@H](CO)N1C[C@H](C)[C@H](CN(C)S(=O)(=O)c2cn(C)cn2)Oc2ncc(C#Cc3cccc(F)c3)cc2C1=O,-3.0
CC(C)NC(=O)Nc1ccc2c(c1)C(=O)N([C@@H](C)CO)C[C@H](C)[C@H](CN(C)C(=O)c1ccccc1)OCCCC[C@@H](C)O2,-4.0
CC(C)NC(=O)N1C[C@H]2[C@@H](c3ccccc31)[C@@H](CO)N2C(=O)Nc1ccc(F)cc1,0.6
C[C@@H]1CN([C@@H](C)CO)C(=O)CCCn2cc(nn2)CO[C@@H]1CN(C)S(=O)(=O)c1ccc(-c2ccccc2)cc1,4.2
CN1C(=O)c2cc(NC(=O)c3cccc(F)c3)ccc2OC[C@@H]2O[C@@H](CC(=O)NCc3ccccc3Cl)CC[C@H]21,-0.7
CC(C)NC(=O)Nc1ccc2c(c1)C(=O)N([C@H](C)CO)C[C@@H](C)[C@@H](CN(C)CC1CCCCC1)O2,-0.9
N#Cc1cccc(-c2ccc([C@@H]3[C@H]4CN(C(=O)Nc5ccccc5)CCCCN4[C@H]3CO)cc2)c1,-4.4
CN1C(=O)c2cc(NC(=O)c3cccc(F)c3)ccc2OC[C@@H]2O[C@@H](CC(=O)Nc3ccccc3)CC[C@H]21,1.8
C[C@@H]1CN([C@H](C)CO)C(=O)c2cccc(NC(=O)C3CC3)c2O[C@H]1CN(C)C(=O)Nc1cccc2ccccc12,-1.0
COc1ccc(C#Cc2cnc3c(c2)C(=O)N([C@H](C)CO)C[C@@H](C)[C@@H](CN(C)C(C)=O)O3)cc1,-8.8

# Three compounds out of the list, sorted by molecular weight, falling.
SMILES,AF4-AF9 inh
C[C@@H]1CN([C@@H](C)CO)C(=O)Cc2cc(NC(=O)c3ccncc3)ccc2O[C@H]1CN(C)C(=O)Nc1ccccc1,0.9
C[C@@H]1CN([C@H](C)CO)C(=O)c2cccc(NC(=O)C3CC3)c2O[C@H]1CN(C)C(=O)Nc1cccc2ccccc12,-1.0
C[C@H](CO)N1C[C@H](C)[C@@H](CN(C)C(=O)CN2CCOCC2)Oc2ncc(C3=CCCC3)cc2C1=O,-5.1

# Further records:
SMILES,AF4-AF9 inh
C[C@@H]1CCCCO[C@H](CN(C)C(=O)C2CCCCC2)[C@H](C)CN([C@@H](C)CO)C(=O)c2cc(NC(=O)Nc3ccc(C(F)(F)F)cc3)ccc2O1,1.4
CC(C)(C)NC(=O)C(CCc1ccccc1)n1c(=O)c(-c2ccccc2)nc2ccccc21 (centres undefined),13.7
Cc1noc(C)c1NC(=O)N(C)C[C@@H]1Oc2cc(C#CCC3CCCC3)ccc2S(=O)(=O)N([C@@H](C)CO)C[C@H]1C,5.3
CO[C@@H]1CN(C)C(=O)c2ccc(NC(=O)Cc3ccccc3)cc2OC[C@H](C)N(C(C)=O)C[C@@H]1C,-2.4
C[C@@H]1CN([C@@H](C)CO)C(=O)Cc2cc(NS(=O)(=O)c3ccccc3)ccc2O[C@H]1CN(C)C,-9.0
CCNC(=O)C[C@H]1C=C[C@@H](NS(=O)(=O)c2ccc(C)cc2)[C@@H](CO)O1,-3.4
Cc1ccccc1S(=O)(=O)N1[C@@H](C#N)[C@@H](c2ccccc2)[C@@H]1CO,-1.9
COc1ccc(CN(C)C[C@H]2Oc3ccc(NC(=O)C4CCCCC4)cc3C(=O)N([C@@H](C)CO)C[C@@H]2C)cc1,-3.6
CCOC(=O)[C@]12CCCC=C1N(CCC1=CCCCC1)C(=O)[C@H](CC(=O)NCCC(C)C)C2,-5.7
O=C(Nc1ccccc1Cl)c1cc(C2CCCN(C(=O)CCc3ccccc3)C2)on1 (centres undefined),-4.4
COc1ccc2c3c(n(C)c2c1)[C@@H](CO)N(C(=O)c1ccncc1)CC31CCN(CC2CC2)CC1,0.8
Cc1noc(C)c1S(=O)(=O)Nc1ccc2c(c1)CC(=O)N([C@@H](C)CO)C[C@@H](C)[C@H](CN(C)C(=O)Nc1cccc3ccccc13)O2,7.2
CCN(C(=O)COC(=O)CCCOc1ccc(Cl)cc1C)c1c(N)n(Cc2ccccc2)c(=O)[nH]c1=O,-4.0
Cc1ccccc1-c1ccc([C@H]2[C@H](CO)N3CCCCN(C(=O)Nc4cccc(F)c4)C[C@@H]23)cc1,4.1
O=C(Nc1cc(F)ccc1F)N1CC(=O)N2[C@H](C1)[C@@H](c1ccc(-c3cccc(F)c3)cc1)[C@@H]2CO,0.4
CCNC(=O)[C@H]1[C@H](CO)[C@H]2Cn3c(ccc(-c4ccccc4)c3=O)[C@H]2N1C(=O)Cc1cccnc1,-2.7
C[C@H]1CN([C@@H](C)CO)C(=O)c2cccc(NC(=O)CCCCCC(=O)Nc3ccccc3N)c2O[C@@H]1CN(C)C(=O)Nc1ccc(C(F)(F)F)cc1,-1.2
O=C(Cc1cccnc1)N1CC2(C1)[C@H](c1ccccc1)[C@@H](CO)N2C(=O)C1CCC1,-1.3
Cc1ccc(S(=O)(=O)Nc2ccc3c(c2)C(=O)N([C@H](C)CO)C[C@H](C)[C@H](CN(C)C(=O)NC(C)C)OCCCC[C@@H](C)O3)cc1,-4.4
C[C@H](O)C#Cc1ccc2c(c1)O[C@@H](CN(C)C(=O)C1CC1)[C@H](C)CN([C@H](C)CO)S2(=O)=O,-3.4
CCCN(C)C[C@@H]1Oc2cc(C#CC(C)(C)O)ccc2S(=O)(=O)N([C@H](C)CO)C[C@@H]1C,3.0
O=C(c1ccncc1)N1CCCCN2[C@@H](CO)[C@@H](c3ccc(-c4ccccc4)cc3)[C@@H]2C1,-3.3
C[C@H](CO)N1C[C@H](C)[C@@H](CN(C)S(C)(=O)=O)Oc2ccc(NS(=O)(=O)c3cn(C)cn3)cc2CC1=O,-0.3
O=C(Nc1cccc(F)c1)N[C@@H]1CC[C@@H](CCNS(=O)(=O)c2cccc(Cl)c2)O[C@@H]1CO,0.2
O=C(NCc1ccccc1)c1cc(C2CCCCN2C(=O)c2ccc(Cl)cc2)on1 (centres undefined),3.5

# Structures from the list above containing an NH in an aromatic ring (5):
SMILES,AF4-AF9 inh
Cc1cccc(C(O)c2ncc(-c3ccc(C(F)(F)F)cc3)[nH]2)c1C (centres undefined),-3.6
CCOc1ccc(NC(=O)COC(=O)c2c[nH]c3ccccc23)cc1,-2.5
COc1ccc2c3c([nH]c2c1)[C@@H](CO)N(C(=O)Nc1ccc(F)cc1)CC31CCN(C(=O)c2ccccc2F)CC1,-1.8
CCN(CC)C(=O)[C@H]1CC(CC(=O)NCCC2=CCCCC2)C(=O)N2CCc3c([nH]c4ccc(OC)cc34)[C@]12C (some centres undefined),3.9
CCN(C(=O)COC(=O)CCCOc1ccc(Cl)cc1C)c1c(N)n(Cc2ccccc2)c(=O)[nH]c1=O,-4.0

# Other compounds
SMILES,AF4-AF9 inh
CCC(=O)Nc1ccc2c(c1)OC[C@@H](C)N(Cc1ccccc1OC)C[C@@H](C)[C@@H](OC)CN(C)C2=O,5.0
C[C@@H]1CN([C@H](C)CO)C(=O)c2cc(-c3ccc(C#N)cc3)cnc2O[C@@H]1CN(C)C(=O)CN(C)C,-1.9
COc1cc(CN2C(=O)C(Cc3ccccc3)ON=C2c2ncccc2C)cc(OC)c1 (centres undefined),8.7
COC(=O)[C@H](CC(C)C)NC(=O)/C=C/[C@H]1O[C@@H](n2ccc(=O)[nH]c2=O)[C@H](O)[C@@H]1O,-2.9
O=C(NCc1ccco1)c1cccc(-c2ccc3nncn3c2)c1,0.3
C[C@@H]1CN([C@H](C)CO)C(=O)c2cc(C#CCc3ccccc3)cnc2O[C@H]1CN(C)C(=O)C1CCOCC1,-8.0
COC(=O)c1cc2c(c3c4cc(C)ccc4n(S(=O)(=O)c4ccc(C)cc4)c13)C(=O)N(Cc1ccc(N(C)C)cc1)C2,-0.2
C[C@@H]1CN([C@H](C)CO)C(=O)c2cc(NS(=O)(=O)c3cccs3)ccc2O[C@@H](C)CCCCO[C@H]1CN(C)C(=O)C1CCCCC1,0.5
OC[C@H]1[C@H](c2ccc(-c3ccccc3F)cc2)[C@@H]2CN(Cc3ccncc3)CCCCN12,3.6
